HIV Env fusion – blocks HIV Env-driven cell-cell fusion. inhibition, % at 12.3 µM. 1.1% of 360,000 active. HeLa-JRFL Env/CEM21 cell fusion, luciferase;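 active = mean replicate inhibition score of at least 50 and every replicate individually at or above 50; inconclusive = only one of the two criteria met; inactive = mean below 50 and not all replicates reaching 50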;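 also: 0% = plate neutral controls and 100% = maraviroc near 300 nM; one replicate is shown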
CSC inhib – blocks cancer stem cells; cancer stem cell-like cells viability, luminescence; inhibition, % at 7.5 µM; 1.1% of 300,000 active; AID 2717;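 active = mean at 75% or more and at least half the replicates too; inconclusive = mean and replicates disagree; tested in HMLE shEcad cells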;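 also: 0% = median of negative and 100% = median of positive control wells; the first replicate is given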
MT1-MMP act inh – MT1-MMP (human) activation inhibition | P50281 | HT1080 RFP-PRO-GFP cells, GFP/RFP ratio fluorescence, overnight; percent of plate control window, DMSO zero | GFP/RFP ratio change, % at 20 µM | 0.061% of 360,000 active | AID 651647;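 active = GFP/RFP ratio change of at least 30% with cell ATP level not reduced by more than half and red fluorescence within 50% of control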; also: strong numbers were not always called active
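Test system: HT1080 RFP-PRO-GFP cells; Benchmarks: DMSO and RFP-L50D-GFP cell wells; Timing: cells overnight before dosing, compound overnight, 37 °C, 5% CO2; Compound: one 20 µM compound dose with 1% DMSO; Read-out: GFP/RFP fluorescence ratio.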
eIF4H inh – inhibitors of RNA binding by human eIF4H | inhibition, % at 35 µM | AID 2012 | 0.94% of 290,000 active | Q15056 | eIF4H fluorescence polarization binding assay;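 active = 50% or more with normal probe brightness, or confirmed in later tests; inconclusive = above 50% with abnormal brightness, or retests that disagree; inactive = below 50% or failed in later tests; about a fifth of its hits are not listed in these tables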;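 also: calls also rest on retests at 20 µM and on dose response follow-up; 0% = protein and probe with vehicle and 100% = probe without protein; strong numbers were not always called active; many hits fall short of the cut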
Yeast UUG start – modulators of start codon recognition fidelity in yeast; S. cerevisiae UUG-firefly luciferase reporter, luminescence/redox ratio; activity score, % at 18.7 µM; 0.13% of 350,000 active;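 active = replicate mean at a twofold rise or more, about +100% in these data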;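 also: firefly luciferase made from a UUG start codon reports start codon fidelity; reporter light over untreated wells divided by growth signal over untreated wells; some hits fall short of that in this replicate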
Rce1 inh – yeast Ras-converting enzyme inhibition | Q03530 | yeast membranes, quenched prenylated peptide cleavage fluorescence | calls only | 0.27% of 290,000 active;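 active = fall in fluorescence gain of 50% or more versus controls, with final raw signal at or below 3038400; inconclusive = same 50% fall but final raw signal above 3038400; inactive = fall in fluorescence gain under 50%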;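 also: plate controls were neutral control wells for no effect and wells lacking membranes for full effect; tested at 10 µM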
Target sequence (Q03530 whole entry, looked up): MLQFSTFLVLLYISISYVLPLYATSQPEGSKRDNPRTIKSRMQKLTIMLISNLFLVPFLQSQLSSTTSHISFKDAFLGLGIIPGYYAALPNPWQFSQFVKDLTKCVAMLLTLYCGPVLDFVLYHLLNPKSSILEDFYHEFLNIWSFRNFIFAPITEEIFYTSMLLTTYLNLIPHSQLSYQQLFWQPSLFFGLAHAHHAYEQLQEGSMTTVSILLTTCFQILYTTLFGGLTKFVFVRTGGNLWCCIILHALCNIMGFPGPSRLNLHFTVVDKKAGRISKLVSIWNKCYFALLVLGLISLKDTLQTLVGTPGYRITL
PABP FP inh – blocks human PABP binding to poly(A) RNA. P11940. fluorescence polarization. inhibition, % at 35 µM. 1% of 290,000 active. AID 2014;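 active = 50% or more with normal probe brightness, or confirmed in later tests; inconclusive = above 50% with abnormal brightness, or retests that disagree; inactive = below 50% or failed in later tests; about a fifth of its hits are not listed in these tables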;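 also: calls also rest on retests at 20 µM and on dose response follow-up; controls were probe without protein and protein plus probe with vehicle; some compounds called inactive have numbers as strong as hits; many hits fall short of the cut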
MT1-MMP act inh RFP – also measured in MT1-MMP act inh; calls as there; RFP signal change, %; measured here: RFP expression control read;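 0 = vehicle wells; hits needed this value within 50% of zero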
The depositor's hits bear a star; i = inactive; ? = inconclusive; / = not tested or not shown; & = joins results of further samples; [ ] = another dose, or the depositor's remark. The order is random. About 2.9% of those tested had a hit in this group.

mol | MT1-MMP act inh | eIF4H inh | CSC inhib | HIV Env fusion | PABP FP inh | Rce1 inh | Yeast UUG start | MT1-MMP act inh RFP
O=C(CSCCO)Nc1cccc(C(F)(F)F)c1 | -3 | -2 | -6 | -12 | -12 | i | -22 | 2
O=C(C=C1CCN(c2ncc(C(F)(F)F)cc2Cl)CC1)NNC(=O)Nc1ccccc1 | -2 | 9 | 0 | 10 | 5 | i | -15 | 0
CO[C@H]1C=CO[C@@]2(C)Oc3c(C)c(O)c4c(O)c(c(C=NN5CCN(C6CCCC6)CC5)c(O)c4c3C2=O)NC(=O)C(C)=CC=C[C@H](C)[C@H](O)[C@@H](C)[C@@H](O)[C@@H](C)[C@H](OC(C)=O)[C@@H]1C | / | ? | / | / | ? | i | / | /
Cc1ccc(C(=O)NNC(=O)Cc2csc(-c3csc(C)n3)n2)cc1 | 2 | -6 | -2 | 7 | 9 | i | / | 2
Cc1ccc(C2=CC(c3ccccc3)n3ncnc3N2)cc1 (stereo not given) | -6 | / | 5 | 3 | / | i | -1 | 5
S=c1[nH]nc(-c2ccc3ccccc3n2)n1-c1ccccc1 | 0 | 4 | 1 | 7 | 8 | i | -12 | 11
Cc1ccccc1NC(=O)c1ccc([N+](=O)[O-])o1 | 1 | -2 | 24 | -1 | -3 | i | / | 0
COc1ccc(C2C(C#N)=C(N)Oc3n[nH]c(C)c32)cc1CN1CCN(c2ccc(F)cc2)CC1 (stereo not given) | 3 | -2 | -15 | 19 | -10 | i | -18 | -1
O=C1NC(=S)N/C1=C\c1ccc(Oc2ccc(C(F)(F)F)cc2[N+](=O)[O-])c(Cl)c1 | -10 | -2 | -15 | -4 | -1 | i | 5 | 0
COc1ccc(COCC(O)CN2CCOCC2)cc1OC (stereo not given) | 0 | 4 | -9 | / | 5 | i | -15 | -1
Cc1ccc(-c2nnn(CC(=O)Nc3ccc(S(=O)(=O)N4CCC(C)CC4)cc3)n2)cc1 | 5 | 11 | -5 | -81 | 0 | / | -9 | -7
CCOC(=O)c1c(NC(=O)C(=O)N/N=C/c2ccc(OCC)cc2)sc2c1CCCCC2 | -7 | -4 | 23 | -15 | 2 | i | -5 | -6
COc1ccc(CCNC(=O)[C@H](C)N2C(=O)N3CCc4c([nH]c5ccccc45)[C@@]3(C)C2=O)cc1 | 3 | -10 | 0 | / | 3 | i | -5 | -34
Cc1ccc([N+](=O)[O-])cc1NC(=O)/C=C/C(=O)O | -1 | -1 | -9 | 5 | 6 | i | -23 | 1
COc1cccc(-c2nnc(N(C)C(=O)C3CCOC3)s2)c1 (stereo not given) | 13 | -2 | -3 | -22 | 3 | i | -20 | 7
COc1ccccc1Cc1c(C(C)(C)C)nc2ccc(C)cn12 | 1 | / | / | 5 | / | / | 50 | 3
CSc1ccc(/C=C/C(=O)OCC(=O)N2CCc3ccccc32)cc1 | -4 | / | / | 0 | / | / | -23 | 0
Nc1c(C(=O)NCc2ccccc2)c2nc3ccccc3nc2n1-c1ccc2c(c1)OCO2 | -32 | 30 | 15 | 5 | -2 | i | -6 | 4
Cc1ccc2[nH]c3c(c2c1)CN(C(=O)CN1CCCCC1)CC3 | / | 3 | -13 | -8 | 13 | i | / | /
COc1ccc(C(=O)NC(=S)Nc2nc(C)c(C(=O)N(C)C)s2)cc1 | -1 | 6 | -1 | -61 | 16 | i | -20 | -2
Cc1cccc(N2CC(C(=O)NC3CCCCCC3)CC2=O)c1C (stereo not given) | -1 | / | -4 | / | / | / | 7 | -4
CCOC(=O)c1[nH]c2ccc(Cl)cc2c1NC(=O)c1nonc1C | -4 | -4 | -12 | -2 | -11 | i | -4 | 0
Cc1ccc(N2C(=O)C3CCCN3C2=S)cc1Cl (stereo not given) | 3 | -3 | 4 | -11 | 2 | i | -6 | -1
COC(=O)[C@@H]1C[C@H]2CC[C@H](O)C[C@H]2N1Cc1ccccc1OS(=O)(=O)c1ccc(C)cc1 | 1 | 4 | -4 | -6 | -4 | i | -18 | 1
NC(=O)COC(=O)c1c2c(nc3ccccc13)CCCC2 | -1 | 2 | -17 | 16 | ? | i | / | 0
COC(=O)Cc1ccc(OC2(C)CCN(Cc3ccccc3OC(F)F)C2)cc1 (stereo not given) | -3 | / | / | 29 | / | / | -6 | 2
CCN(CC)CCNC(=O)CN1C(=O)COc2ccc(S(=O)(=O)N3CCOCC3)cc21 | -4 | -2 | / | -4 | 4 | i | -8 | 1
CCNC1CCS(=O)(=O)C1 (stereo not given) | -1 | -4 | -5 | 0 | -2 | i | -7 | 3
CCC1(c2ccccc2)NC(=O)N(CC(=O)Nc2ccccc2N2CCCCC2)C1=O (stereo not given) | 1 | -2 | -6 | -122 | -2 | i | 26 | -2
CCN(CCn1cccn1)Cc1c(C(=O)N2CCCCCCC2)nc2ccc(Cl)cn12 | -5 | 20 | -12 | 7 | 15 | i | / | 0
CC(C)(CNC(=O)c1ccc(Cl)c(S(=O)(=O)N2CCc3ccccc3C2)c1)N1CCOCC1 | -8 | 1 | -13 | 33 | 2 | i | / | -23
COc1ccc(-n2cc(CNCCN3CCOC3=O)c(-c3ccccc3Cl)n2)cc1 | -1 | -3 | -9 | 6 | 3 | i | -1 | 0
C/C(CC(=O)Nc1ccc(F)cc1)=N\NC(=O)COc1ccccc1 | 4 | 6 | 8 | -25 | 2 | i | / | 8
COCCN(C(=O)Cc1ccc(OC)c(OC)c1)c1nc(-c2cc(OC)ccc2OC)cs1 | -3 | -6 | -8 | 11 | -5 | i | -5 | -14
O=C(Cc1n[nH]c(=O)c2ccccc12)OCC(=O)c1ccc2c(c1)OCCO2 | 2 | 7 | 64 | -66 | -10 | i | -15 | -11
O=C(O)c1ccc(S(=O)(=O)N2CCC(Cc3ccccc3)CC2)cc1 | -3 | -15 | -10 | -3 | -3 | i | -3 | -1
CCn1cc(S(=O)(=O)NC(C)c2cc(OC)ccc2OC)cn1 (stereo not given) | -2 | -12 | -2 | 1 | 10 | i | 8 | -5
CN(C)CCOC1c2ccccc2CCc2ccc3ccccc3c21 (stereo not given) | -2 | / | 1 | 6 | / | i | -10 | -1
Cc1c(C(=N)C(C#N)C#N)c(=N)oc2c1ccc1ccccc12 | -4 | 6 | 7 | -12 | 24 | i | -24 | 7
COc1ccc(Br)cc1C(=O)Nc1ccc(C(=O)O)cc1 | -1 | -6 | / | 1 | -21 | i | 1 | -2
O=C(CSc1nnc(SCc2cccc3ccccc23)s1)Nc1ccc(C(=O)O)cc1 | 0 | 9 | -3 | -4 | -6 | i | / | 1
CCOc1ncccc1C(=O)OCC(=O)N1CCc2ccccc21 | -2 | 1 | -10 | -17 | 30 | i | / | -2
Nc1cccnc1S(=O)(=O)c1ccccc1 | -2 | 0 | -15 | 13 | 0 | i | -14 | 1
CN1CCN(Cc2ccc(Sc3ccc(Cl)cc3)c([N+](=O)[O-])c2)CC1 | 3 | -9 | 86* | 2 | 2 | i | / | -4
CCc1c(O)nc(SCC(=O)Nc2ccccc2)n(-c2ccccc2)c1=O | 19 | -1 | -11 | / | 1 | i | -7 | 2

A draw from above in order of count of non-hydrogen atoms, lowest first.
mol | MT1-MMP act inh | eIF4H inh | CSC inhib | HIV Env fusion | PABP FP inh | Rce1 inh | Yeast UUG start | MT1-MMP act inh RFP
CCOc1ncccc1C(=O)OCC(=O)N1CCc2ccccc21 | -2 | 1 | -10 | -17 | 30 | i | / | -2
CN1CCN(Cc2ccc(Sc3ccc(Cl)cc3)c([N+](=O)[O-])c2)CC1 | 3 | -9 | 86* | 2 | 2 | i | / | -4
COCCN(C(=O)Cc1ccc(OC)c(OC)c1)c1nc(-c2cc(OC)ccc2OC)cs1 | -3 | -6 | -8 | 11 | -5 | i | -5 | -14

Remaining list, next part:
mol | MT1-MMP act inh | eIF4H inh | CSC inhib | HIV Env fusion | PABP FP inh | Rce1 inh | Yeast UUG start | MT1-MMP act inh RFP
Cc1onc(-c2ccccc2)c1C(=O)OCC(=O)Nc1ccccc1 | 0 | / | / | -1 | / | / | -14 | -4
COc1ccc(C2C(C(=O)Nc3cccc(C)n3)CCC(=O)N2c2ccc(OC)cc2)cc1 (stereo not given) | / | 0 | -11 | / | 5 | i | / | /
CCOc1[nH]n(-c2ccc(Cl)cc2)c(=O)c1C=Nc1ccc(Cl)cc1 | 7 | 1 | -4 | 21 | -5 | i | -7 | 6
CCOc1ccc(OCCC(=O)OCC(=O)Nc2cc(C)nn2-c2ccccc2)cc1 | -5 | / | -11 | 7 | / | i | -9 | -1
COc1cccc(CN2CCNC(=O)C2CC(=O)O)c1OC (stereo not given) | -1 | 5 | -9 | -26 | 6 | i | -18 | 1
CC(C)N(C(=O)CN1CCN(C(=O)C2COc3ccccc3O2)CC1)C(C)C (stereo not given) | 2 | / | -11 | / | / | / | -16 | -2
COc1ccc([C@@H]2CC=C(C(=O)O)[C@H](c3ccc(F)cc3)N2S(=O)(=O)c2ccc(C)cc2)cc1OC | 1 | / | -4 | 2 | / | / | 8 | 1
CC(=O)c1cccc(NC(=O)C(C)OC(=O)c2cccc(-n3cnnn3)c2)c1 (stereo not given) | 2 | / | 12 | -16 | / | i | 2 | 0
CSCCC(NC(=O)c1ccco1)C(=O)NCc1ccc2c(c1)OCO2 (stereo not given) | -4 | / | / | 10 | / | / | -11 | -7
Cc1ccc(C)c(-c2csc(Nc3ncccn3)n2)c1 | -2 | -3 | 6 | -6 | -2 | i | -3 | 0
O=C(O)Cn1nnnc1SCC(=O)Nc1ccccc1F | -4 | -2 | -16 | 3 | 0 | i | / | 2
CC1CCCCN1Cc1c(O)ccc2c(=O)c(-c3nc4ccccc4s3)coc12 (stereo not given) | -2 | 1 | -15 | -10 | 10 | i | 1 | 3
Cc1ccccc1Cc1c(C)nc2nc(SCC(=O)NCCCN3CCCC3)nn2c1C | 5 | -8 | -11 | -2 | 4 | / | -11 | 6
CC(C)(C)c1ccc(C(=O)Nc2ccc(O)c3c(=O)cc(-c4ccccc4Cl)oc23)cc1 | 7 | -4 | -15 | 23 | -12 | i | -9 | 1
CCOc1ccc2nc(C)cc(Nc3cccc([N+](=O)[O-])c3)c2c1 | -1 | -7 | 15 | 10 | 4 | i | / | -11
O=C(Nc1cc(Cl)ccn1)C1CCN(S(=O)(=O)c2cccs2)CC1 | -8 | 7 | 12 | 43 | 12 | i | -21 | -17
CCC1CN(C(=O)NCc2cccc(OC)c2)c2cc(Cl)ccc2O1 (stereo not given) | -5 | -9 | -5 | 20 | 5 | i | -1 | -4
CCC(=O)Nc1ccc(NC(=O)CCc2ccccc2)cn1 | 4 | 5 | -9 | -10 | 5 | i | -6 | 2
COc1ccc(NC(=O)N(C)C[C@H]2Oc3cc(Br)ccc3S(=O)(=O)N([C@H](C)CO)C[C@@H]2C)cc1 | 0 | / | / | 2[16.7 µM] | / | / | 1&20 | 3
COc1ccc(/C=C/C(=O)NNC(=O)c2ccncc2)c(OC)c1 | 5 | / | -6 | 3 | / | / | -12 | 7
COc1ccc(C)cc1S(=O)(=O)N(CC(=O)Nc1cccc([N+](=O)[O-])c1)c1ccccc1 | 0 | -7 | -5 | -30 | 8 | i | / | -5
Cc1cc(N2C(=O)C(=O)/C(=C(/O)c3ccccc3)C2c2cccc(Br)c2)no1 (stereo not given) | 0 | / | 3 | 8 | / | i | -6 | 4
CC1CCc2c(C(=O)NCc3ccccn3)csc2C1 (stereo not given) | 4 | 8 | 20 | -25 | 7 | i | / | 3
